HIV Env fusion: HIV envelope-mediated fusion inhibition | HeLa-JRFL Env/CEM21 cell fusion, luciferase | inhibition, % at 12.3 µM | 1.1% of 360,000 active;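 active = mean replicate inhibition score of at least 50 and every replicate individually at or above 50; inconclusive = only one of the two criteria met; inactive = mean below 50 and not all replicates reaching 50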;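 note: 0% = plate neutral controls and 100% = maraviroc near 300 nM; one replicate is shown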
Starred values were filed as active, the others as inactive; ? = inconclusive; [ ] = remark or other dose. These rows are one share of the data. The share of hits here may be higher or lower than overall.

SMILES,HIV Env fusion
CCCC(O)C#Cc1cnc2c(c1)C(=O)N([C@H](C)CO)C[C@H](C)[C@H](CN(C)S(=O)(=O)c1ccc(C)cc1)O2 (stereo partly drawn),5.0[16.7 µM]
CO[C@@H]1CC[C@@H]2CCN(C)C(=O)[C@@H](C)CN(C)C(=O)c3cccc(C#N)c3OC[C@@H]1O2,-12.4[16.7 µM]
O=C(C[C@@H]1C=C[C@H](NC(=O)Nc2ccc(C(F)(F)F)cc2)[C@H](CO)O1)NCc1cccc(F)c1,9.0[16.7 µM]
COc1cccc(CN2CCC3(CC2)CN(S(C)(=O)=O)[C@H](CO)c2[nH]c4cc(OC)ccc4c23)c1,43.3[16.7 µM]
CC(C)NC(=O)N(C)C[C@@H]1OCCCC[C@@H](C)Oc2ccc(NC(=O)Nc3ccccc3)cc2C(=O)N([C@H](C)CO)C[C@@H]1C,3.7[16.7 µM]
C[C@@H]1CN([C@H](C)CO)C(=O)c2cccc(NS(=O)(=O)c3ccccc3)c2O[C@@H]1CN(C)S(=O)(=O)c1cccs1,-2.6[16.7 µM]
CC(C)[C@H](NC(=O)C1CC1)C(=O)N1CCC[C@H]1C(=O)NCCc1ccccc1Cl,-13.9
COc1ccc2c(c1)[C@@]1(OCCC=C[C@H]1C)C(=O)N2Cc1ccc(F)cc1,11.3
N#C[C@@H]1[C@H](c2ccccc2/C=C/c2ccccc2)[C@H](CO)N1S(=O)(=O)c1cccc(F)c1,22.8[16.7 µM]
Cc1[nH]c2ccccc2c1CC(=O)Nc1ccc(Nc2cccnc2)c(-c2cc(F)cc(F)c2)c1,-48.2
Cc1noc(C)c1NC(=O)Nc1ccc2c(c1)C(=O)N([C@H](C)CO)C[C@@H](C)[C@H](CN(C)S(=O)(=O)c1ccc(Cl)cc1)OCCCC[C@@H](C)O2,-68.6[16.7 µM]
COC(=O)C1=C(C)N(Cc2ccc(C(F)(F)F)cc2)C(=NCc2ccc(C(F)(F)F)cc2)NC1c1ccc(F)cc1 (stereo not drawn),-4.6
CO[C@@H]1CC[C@@H]2CCN(C)C(=O)[C@@H](C)[C@H](OC)CN(C)C(=O)c3cccc(C#N)c3OC[C@@H]1O2,7.4[16.7 µM]
COC(=O)[C@]12C[C@H](CC(=O)NCc3ccccc3)C(=O)N(CCC3=CCCCC3)C1=C[C@H](COCc1ccccc1)O[C@@H]2C,16.1
COc1ccc2c3c(n(C)c2c1)[C@@H](CO)N(C(=O)C1CC1)CC31CCN(C(=O)C2CCOCC2)CC1,-35.3[16.7 µM]
CCCNC(=O)[C@H]1[C@H](CO)[C@H]2Cn3c(ccc(-c4ccccc4F)c3=O)[C@H]2N1CC1CC1,-2.7[16.7 µM]
COCC(=O)Nc1ccc2c(c1)[C@H]1C[C@H](CC(=O)NCc3ccc4c(c3)OCO4)O[C@H](CO)[C@H]1O2,-15.5[16.7 µM]
Cc1noc(C)c1S(=O)(=O)Nc1ccc2c(c1)CC(=O)N([C@H](C)CO)C[C@@H](C)[C@@H](CN(C)Cc1ccc(-c3ccccc3)cc1)O2,4.2[16.7 µM]
O=C(C[C@@H]1CC[C@H]2[C@@H](COC[C@@H](O)CN2CCC(F)(F)F)O1)NCc1ccc(Oc2ccccc2)cc1,10.6[16.7 µM]
COC(=O)C[C@@H]1CC[C@H]2[C@H](COc3ccc(NC(=O)Nc4cc(C)cc(C)c4)cc3C(=O)N2C)O1,10.1[16.7 µM]
C[C@H](NC(=O)N(C)C[C@H]1OCc2ccccc2-c2ccccc2C(=O)N([C@@H](C)CO)C[C@H]1C)c1ccccc1,8.4[16.7 µM]
CCCNC(=O)N1C[C@@H](O)COC[C@@H]2O[C@@H](CC(=O)O)CC[C@H]21,-3.6[16.7 µM]
CC[C@H](NC(=O)[C@@H](Cc1ccccc1)NC(=O)[C@H]1O[C@@H](n2cnc3c(=O)[nH]c(N)nc32)[C@H](O)[C@@H]1O)c1ccccc1,-6.4
O=C(C[C@@H]1C[C@H]2c3cc(NS(=O)(=O)c4ccc(F)cc4)ccc3O[C@H]2[C@@H](CO)O1)NCCN1CCCCC1,4.2[16.7 µM]
CN(C)C(=O)c1cccc(-c2ccc3n(c2=O)C[C@H]2[C@H](CO)[C@@H](C(=O)NCC(F)(F)F)[C@@H]3N2C)c1,4.7[16.7 µM]
CC(=O)NC1CCCCN(C)C1=O (stereo not drawn),0.0
C[C@H](NC(=O)C[C@@H]1C[C@H]2c3cc(NC(=O)Nc4ccc(C(F)(F)F)cc4)ccc3O[C@H]2[C@@H](CO)O1)c1ccccc1,3.7[16.7 µM]
Cc1ccc(S(=O)(=O)N[C@@H]2CC[C@@H](CCNC(=O)c3ccccc3F)O[C@@H]2CO)cc1,14.9[16.7 µM]
CC(C)(C)[S@](=O)N1Cc2cc(C(=O)N3CCCCC3)nc(-c3cccc(-c4cccc(C#N)c4)c3)c2[C@@H]1CCO,-4.1[16.7 µM]
CO[C@@H]1CN(C)C(=O)c2ccc(NS(C)(=O)=O)cc2OC[C@@H](C)N(Cc2nccs2)C[C@@H]1C,-1.6[16.7 µM]

Some values from above.
Value for CC(=O)NC1CCCCN(C)C1=O (stereo not drawn) under HIV Env fusion: 0.0
Value for C[C@H](NC(=O)C[C@@H]1C[C@H]2c3cc(NC(=O)Nc4ccc(C(F)(F)F)cc4)ccc3O[C@H]2[C@@H](CO)O1)c1ccccc1 under HIV Env fusion: 3.7[16.7 µM]
Value for O=C(C[C@@H]1CC[C@H]2[C@@H](COC[C@@H](O)CN2CCC(F)(F)F)O1)NCc1ccc(Oc2ccccc2)cc1 under HIV Env fusion: 10.6[16.7 µM]

Next records.
SMILES,HIV Env fusion
CN(C)c1ccc2c(c1)[C@H]1C[C@@H](CC(=O)NCc3cccc(F)c3)O[C@@H](CO)[C@H]1O2,-11.5[16.7 µM]
C[C@@H]1CN([C@H](C)CO)C(=O)c2cc(-c3cncnc3)cnc2O[C@H]1CN(C)Cc1ccc(Oc2ccccc2)cc1,15.0[16.7 µM]
COc1cccc(-c2ncn(CCc3ccccc3OC)c2CC(C)C)c1,14.1
COC(=O)C1=C(C)N(Cc2ccccc2C(F)(F)F)C(=NCc2ccccc2)NC1c1cccc(F)c1 (stereo not drawn),-208.6
C[C@H]1CN([C@@H](C)CO)C(=O)c2ccccc2-c2ccccc2CO[C@@H]1CN(C)C(=O)Nc1cccc(C(F)(F)F)c1,58.7*[16.7 µM]
C[C@H](CO)N1C[C@H](C)[C@@H](CN(C)C(=O)Nc2ccc(F)cc2)Oc2ccc(NC(=O)C3CC3)cc2C1=O,3.5[16.7 µM]
C[C@H](NC(=O)[C@H]1[C@H](CO)[C@H]2Cn3c(ccc(/C=C/c4ccccc4)c3=O)[C@@H]1N2)c1ccccc1,12.4[16.7 µM]
C[C@H]1CN([C@@H](C)CO)C(=O)CCCn2cc(nn2)CO[C@H]1CN(C)Cc1cccnc1,14.8[16.7 µM]
COc1cccc(S(=O)(=O)N(C)C[C@H]2Oc3cc(C4=CCCCC4)ccc3S(=O)(=O)N([C@H](C)CO)C[C@@H]2C)c1,16.5[16.7 µM]
CC=Cc1ccc2n(c1=O)C[C@H]1[C@H](CO)[C@@H](C(=O)Nc3ccccc3)N(CC3CCCC3)[C@@H]21 (mixture of isomers),26.9[16.7 µM]

Next records
Molecule,HIV Env fusion
CN(C)C(=O)[C@H]1[C@H](CO)[C@H]2Cn3c(ccc(C4=CCCC4)c3=O)[C@@H]1N2S(=O)(=O)c1cn(C)cn1,1.3[16.7 µM]
CO[C@@H]1CN(C)C(=O)c2cc(NS(=O)(=O)CC(F)(F)F)ccc2OC[C@@H](C)N(C(=O)NC(C)C)C[C@@H]1C,9.2[16.7 µM]
COc1ccc2c3c([nH]c2c1)[C@H](CO)N(C(=O)c1ccccc1)CC31CN(Cc2cccnc2)C1,3.1[16.7 µM]
Cc1noc(C)c1NC(=O)Nc1ccc2c(c1)C(=O)N([C@H](C)CO)C[C@@H](C)[C@H](CN(C)Cc1ccc(C(F)(F)F)cc1)O2,10.6[16.7 µM]
CC(C)NC(=O)N(C)C[C@@H]1Oc2ccc(NS(=O)(=O)c3cccs3)cc2C(=O)N([C@@H](C)CO)C[C@@H]1C,18.8[16.7 µM]
C=C1[C@H](C)CN(S(=O)C(C)(C)C)[C@H]1CCO (stereo partly drawn),-14.3
CO[C@H]1CN(C)C(=O)c2ccc(NS(C)(=O)=O)cc2OC[C@H](C)N(Cc2cncnc2)C[C@@H]1C,-2.9[16.7 µM]
COc1ccc(CN2CC3(C2)CN(C(=O)CN(C)C)[C@H](CO)c2[nH]c4cc(OC)ccc4c23)cc1,13.4[16.7 µM]
CCCC#Cc1ccc2c(c1)O[C@@H](CN(C)S(=O)(=O)c1cccc(OC)c1)[C@@H](C)CN([C@H](C)CO)S2(=O)=O,31.3[16.7 µM]
C[C@@H]1CN([C@@H](C)CO)C(=O)c2c(c3ccccc3n2C)-c2ccccc2CO[C@@H]1CN(C)C(=O)[C@H]1CCCN1C,-8.0[16.7 µM]
CCOC(=O)N(C)C[C@H]1OCc2cn(nn2)CCCC(=O)N([C@@H](C)CO)C[C@H]1C,8.8[16.7 µM]
CCCC(=O)Nc1ccc2c(c1)OC[C@@H](C)N(C(=O)c1cccnc1)C[C@@H](C)[C@H](OC)CN(C)C2=O,2.4[16.7 µM]
COc1ccc(S(=O)(=O)N(C)C[C@@H]2Oc3c(NC(=O)Nc4ccc(F)cc4)cccc3C(=O)N([C@H](C)CO)C[C@@H]2C)cc1,19.2[16.7 µM]
CO[C@@H]1CN(C)C(=O)c2cc(NC(C)=O)ccc2OC[C@@H](C)N(C(=O)c2cnccn2)C[C@H]1C,-2.8[16.7 µM]
CNC[C@H]1OCCCC[C@H](C)Oc2ccc(NC(=O)NC(C)C)cc2C(=O)N([C@@H](C)CO)C[C@@H]1C,-2.1[16.7 µM]
O=C(C[C@@H]1C[C@H]2c3cc(NC(=O)c4ccc5c(c4)OCO5)ccc3O[C@H]2[C@H](CO)O1)NCCN1CCCCC1,1.8[16.7 µM]
O=C(C[C@@H]1CC[C@@H]2[C@H](COC[C@@H](O)CN2Cc2cc(F)cc(F)c2)O1)Nc1nccs1,-1.7[16.7 µM]
CCNC(=O)Nc1ccc2c(c1)C(=O)N(C)[C@@H]1CC[C@@H](CC(=O)N[C@H](C)c3ccccc3)O[C@H]1CO2,-47.5[16.7 µM]
CCCCNC(=O)C[C@H]1C[C@@]2(C(=O)OC)C(=C[C@H](COCc3ccccc3)O[C@@H]2C)N(CCC2=CCCCC2)C1=O,?
C[C@@H]1CN([C@H](C)CO)C(=O)c2ccccc2-c2ccccc2CO[C@@H]1CN(C)S(=O)(=O)c1ccccc1C#N,-9.7[16.7 µM]
O=C(Cc1ccc(NC(=O)C2CCCN(C(=O)c3ccccc3)C2)cc1)Nc1cccc(C(=O)N2CCCCC2)c1 (stereo not drawn),-6.5
Cc1noc(C)c1NC(=O)Nc1ccc2c(c1)C(=O)N([C@H](C)CO)C[C@H](C)[C@H](CN(C)S(=O)(=O)c1ccccc1)O2,33.3[16.7 µM]
CCc1cc2c(nc1CC)CCCN2S(=O)(=O)c1ccccc1,16.7
N#Cc1ccc(OCCCN2CCC(C(O)(c3ccccc3)c3ccccc3)CC2)c(F)c1,24.3
CO[C@H]1CC[C@@H]2CCOc3c(C#N)cccc3C(=O)N(C)CCCC(=O)N(C)C[C@H]1O2,-3.1[16.7 µM]
COc1ccc(N2C(=O)c3n[nH]c(C)c3C2c2ccc(F)cc2)cc1 (stereo not drawn),-11.7
C[C@@H]1CN([C@@H](C)CO)C(=O)Cc2cc(NS(=O)(=O)c3cn(C)cn3)ccc2O[C@@H]1CN(C)C(=O)Nc1ccc(C(F)(F)F)cc1,0.9[16.7 µM]
CN(C)C(=O)C[C@H]1CC[C@H]2[C@@H](COC[C@@H](O)CN2C(=O)C2CCCC2)O1,1.5[16.7 µM]
COC(=O)[C@H]1[C@H](CO)[C@H]2Cn3c(ccc(C4=CCCC4)c3=O)[C@H]2N1C(=O)Cc1cccnc1,0.9[16.7 µM]
CCC(=O)N1C[C@@H](O)COC[C@@H]2O[C@H](CC(=O)NC)CC[C@H]21,-15.2[16.7 µM]
CCCN(CCC)CCN1CCN(C(=O)[C@H](CCc2ccccc2)NC(=O)[C@H]2O[C@@H](n3cnc4c(N)ncnc43)[C@H](O)[C@@H]2O)CC1,-12.1
N[C@@H]1CC[C@H](CCn2cc(-c3ccccn3)nn2)O[C@H]1CO,-20.6[16.7 µM]
CO[C@H]1CN(C)C(=O)c2cc(NC(=O)C3CCC3)ccc2OC[C@@H](C)N(C)C[C@H]1C,2.2[16.7 µM]
C[C@H](CO)N1C[C@H](C)[C@H](CN(C)C)Oc2ccc(NS(=O)(=O)c3ccccc3)cc2C1=O,-16.7[16.7 µM]
O=C(C[C@@H]1C[C@H]2c3cc(NC(=O)Nc4ccccc4F)ccc3O[C@H]2[C@H](CO)O1)NCc1ccc2c(c1)OCO2,2.8[16.7 µM]
Nc1nc2c(ncn2[C@@H]2O[C@H](C(=O)NC3CCCCC3)[C@@H](O)[C@H]2O)c(=O)[nH]1,-11.2
Nc1nc2c(ncn2[C@@H]2O[C@H](C(=O)NCCCN3CCCC3=O)[C@@H](O)[C@H]2O)c(=O)[nH]1,-7.1
CO[C@H]1CC[C@@H]2CCN(C)C(=O)[C@H](C)[C@H](OC)CN(C)C(=O)c3cc(C#N)ccc3OC[C@H]1O2,9.7[16.7 µM]

Shown as labelled records: part of the list above.
canonical_smiles: C[C@H](CO)N1C[C@H](C)[C@H](CN(C)C)Oc2ccc(NS(=O)(=O)c3ccccc3)cc2C1=O
- HIV Env fusion = -16.7[16.7 µM]
canonical_smiles: CO[C@H]1CC[C@@H]2CCN(C)C(=O)[C@H](C)[C@H](OC)CN(C)C(=O)c3cc(C#N)ccc3OC[C@H]1O2
- HIV Env fusion = 9.7[16.7 µM]
canonical_smiles: Nc1nc2c(ncn2[C@@H]2O[C@H](C(=O)NCCCN3CCCC3=O)[C@@H](O)[C@H]2O)c(=O)[nH]1
- HIV Env fusion = -7.1
canonical_smiles: Nc1nc2c(ncn2[C@@H]2O[C@H](C(=O)NC3CCCCC3)[C@@H](O)[C@H]2O)c(=O)[nH]1
- HIV Env fusion = -11.2

Retrieved by structure from the list above, two records:
Molecule,HIV Env fusion
C[C@H](CO)N1C[C@H](C)[C@H](CN(C)C)Oc2ccc(NS(=O)(=O)c3ccccc3)cc2C1=O,-16.7[16.7 µM]
O=C(C[C@@H]1C[C@H]2c3cc(NC(=O)Nc4ccccc4F)ccc3O[C@H]2[C@H](CO)O1)NCc1ccc2c(c1)OCO2,2.8[16.7 µM]

High-throughput results: PubChem BioAssay, Broad Institute
